B2AR ag = beta2AR agonists driving receptor internalization, primary screen, cell-based, FAP fluorogen, flow cytometry; 340,000 tested, 0.43% active; Beta-2 adrenergic receptor (Homo sapiens), P07550; Am2.2-beta2AR cells; reference of the scale not given here; response, % (test concentration not listed);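 active = response above a set limit, near 3 SD of response in nonfluorescent compounds, cut at about 42% in these data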;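 also: stock transfer was 100 nL into about 11 µL; a reference agonist was the positive control; negative values mostly stem from fluorescent compounds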
Calb FLC = C. albicans growth inhibition with fluconazole, primary screen, CaCi-2 strain, Alamar Blue fluorescence | C. albicans CaCi-2 (fluconazole-resistant clinical isolate) + fluconazole, 48 h | 300,000 tested, 0.57% active | AID 1979, 2009 | growth inhibition, % (test concentration not listed);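 active = most replicates above 75%; inconclusive = exactly half above 75%; inactive = most below 75%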;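 also: all wells also contain fluconazole at 8 µg/ml as a sub-toxic cotreatment; 0% = median of DMSO wells and 100% = median of geldanamycin control wells; wells of about 8 µL received 7.5 nL stock; the first replicate is given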
T cruzi inh = inhibitors of intracellular T. cruzi growth, primary screen, luminescence, NIH3T3 host cells | AID 1885, 2009 | inhibition, % (concentration not given with the values) | 300,000 tested, 1.4% active | T. cruzi beta-gal in NIH3T3, 90 h;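 active = mean inhibition across valid replicates above about 55%, limit read from the data; inconclusive = mean below that limit but half or more replicates reach it; inactive = mean below it, under half of replicates reach it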;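 also: signal also drops with host cell toxicity which is not excluded here; 0% = plate median of DMSO wells and 100% = zero luminescence signal; higher percent means less beta-gal luminescence so fewer parasites; stock transfer was 50 nL into about 50 µL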
A1 inh = caspase 3/7 activation in MEF A1-2A-BIM cells, primary screen, A1 inhibitor project, cell-based, luminescence, HTS. Caspase-Glo 3/7 luminescence, 3 h; percent of clofoctol response, vehicle zero. caspase activation, % (concentration not given with the values). 330,000 tested, 0.066% active;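 active = over half of replicate activation scores above 10%, or exactly half above 10 with the replicate mean above 10; inconclusive = replicate mean below 10 yet half the replicates above 10; inactive = over half of replicates below 10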;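 also: wells of about 30 µL received 50 nL stock; many hits fall short of the cut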
RanGTP-Impb inh = inhibitors of RanGTP-importin-beta interaction, primary screen, biochemical, FRET, CFP-Ran, YFP-importin-beta, homogeneous. cell-free CFP-Ran/YFP-importin-beta FRET ratio. 300,000 tested, 1.1% active. Ran GTPase (GTP-bound) - importin-beta complex. inhibition, % (concentration not given with the values);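 active = most replicates above 15%; inconclusive = exactly half above 15%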;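 also: 0% = DMSO wells and 100% = Ran loaded with GDP instead of GTP; wells of about 40 µL received 100 nL stock; the first replicate is given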
Beta apoptosis = inhibitors of cytokine-induced beta cell apoptosis, primary screen, luminescence; INS-1E cytokine-induced death, ATP luminescence, 48 h; percent of positive-control rescue, neutral wells zero; protection from apoptosis, % (test concentration not listed); 300,000 tested, 0.8% active;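 active = all replicates at 75% or more, or half of them and the mean; inconclusive = half reach 75% but not the mean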;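 also: 0% = cytokine-treated negative control wells and 100% = positive control rescue; higher means more ATP so stronger rescue from cytokine killing; wells of about 40 µL received 100 nL stock; the first replicate is given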
LANA-H2B inh = blockers of LANA interaction with H2A/H2B – biochemical, FP readout, HTS, primary screen; Protein LANA1 (Human herpesvirus 8 type P (isolate GK18)), Q9QR71; cell-free LANA-H2A/H2B peptide, fluorescence polarization; inhibition, % (no concentration beside the values); 320,000 tested, 0.6% active; AID 2629, 2010; in the data active = inhibition mostly above about 10%, no sharp cut-off; inactive = mostly below about 6.7%;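 also: stock transfer was 7.5 nL into about 10 µL; 0% = median of vehicle wells and 100% = median of positive control wells; one replicate is shown; the record names a cut of 25% in any replicate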
Target sequence (Q9QR71 whole entry, looked up): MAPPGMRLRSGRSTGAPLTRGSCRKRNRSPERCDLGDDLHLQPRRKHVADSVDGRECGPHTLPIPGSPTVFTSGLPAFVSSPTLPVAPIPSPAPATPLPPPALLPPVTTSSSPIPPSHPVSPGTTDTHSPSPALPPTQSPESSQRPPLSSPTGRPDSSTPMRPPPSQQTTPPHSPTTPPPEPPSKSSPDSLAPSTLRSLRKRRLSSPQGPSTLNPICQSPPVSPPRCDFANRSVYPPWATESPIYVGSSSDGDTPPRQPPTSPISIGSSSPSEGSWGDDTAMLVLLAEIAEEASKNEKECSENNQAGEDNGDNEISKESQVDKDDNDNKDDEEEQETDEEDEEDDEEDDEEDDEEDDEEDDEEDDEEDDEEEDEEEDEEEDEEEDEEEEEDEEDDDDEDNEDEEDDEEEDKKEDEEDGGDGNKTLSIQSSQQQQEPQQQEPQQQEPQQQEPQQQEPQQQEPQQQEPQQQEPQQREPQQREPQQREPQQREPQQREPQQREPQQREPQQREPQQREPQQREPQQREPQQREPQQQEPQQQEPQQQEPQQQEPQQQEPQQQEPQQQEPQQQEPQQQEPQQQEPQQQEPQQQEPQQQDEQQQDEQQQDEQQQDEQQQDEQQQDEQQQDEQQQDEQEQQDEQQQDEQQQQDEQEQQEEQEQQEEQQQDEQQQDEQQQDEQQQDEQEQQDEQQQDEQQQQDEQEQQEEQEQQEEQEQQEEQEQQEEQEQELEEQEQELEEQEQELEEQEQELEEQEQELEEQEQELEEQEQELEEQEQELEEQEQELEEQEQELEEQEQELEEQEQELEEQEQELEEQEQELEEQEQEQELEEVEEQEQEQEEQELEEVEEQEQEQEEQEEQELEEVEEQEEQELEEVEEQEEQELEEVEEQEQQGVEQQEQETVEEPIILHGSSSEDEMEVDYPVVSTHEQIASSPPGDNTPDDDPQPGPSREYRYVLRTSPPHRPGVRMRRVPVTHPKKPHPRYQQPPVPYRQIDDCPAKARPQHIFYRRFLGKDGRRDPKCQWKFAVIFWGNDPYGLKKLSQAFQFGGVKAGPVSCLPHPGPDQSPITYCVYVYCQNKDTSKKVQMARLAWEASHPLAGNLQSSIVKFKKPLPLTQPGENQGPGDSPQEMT
UCH37 inh = inhibitors of human UCH37 deubiquitinase, primary screen, biochemical, Ub-AMC cleavage, fluorescence | inhibition, % (concentration not given with the values) | Ubiquitin carboxyl-terminal hydrolase isozyme L5 (Homo sapiens), Q9Y5K5 | AID 588478, 2011 | 330,000 tested, 0.33% active | purified proteasome/UCH37;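 active = mean of two replicates above 20%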;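 also: 0% = compound-free wells with enzyme and 100% = wells lacking proteasome; stock transfer was 100 nL into about 20 µL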
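Material: human UCH37 enzyme supplied as purified proteasome complex. Measure: % inhibition of Ub-AMC cleavage fluorescence. Medium: pH 7.4 Tris-HCl (50 mM) with ovalbumin, ATP-MgCl2, DTT. Times: 30 min preincubation with enzyme, 25 min cleavage at room temperature. Detection: AMC fluorescence intensity at 355/460 nm.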
* = called active by the depositor; ? = inconclusive; / = no result given. Hits appear at their usual frequency; overall some 4.3% were active at least once.

item	structure	B2AR ag	Calb FLC	T cruzi inh	A1 inh	RanGTP-Impb inh	Beta apoptosis	LANA-H2B inh	UCH37 inh
1	CCN(CC)CCCNC(=O)c1cc(Nc2ccc(OC)cc2OC)nc2ccccc12	1	7	43	0.4	-4.2	3	-1.6	6.6
2	O=C(OCC#CCSc1nnc(-c2cccc3ccccc23)o1)c1cnc[nH]1	-2	/	/	1.1	/	-1	0.3	0.5
3	Cc1cccc(N2CCN(C(=O)C(Cc3ccccc3)NC(N)=O)CC2)c1C (stereo not given)	14	-3	2	-0.6	-1.4	-1	-2.5	1.6
4	COc1ccc(C(C)(C)C)cc1NC(=O)COC(=O)c1ccc([N+](=O)[O-])o1	3	-5	20	-0.5	1.9	1	-4.9	4.5
5	CC1(C)CC(=O)C2=C(C1)Oc1nc3ccccc3cc1C2C(C#N)C#N (stereo not given)	-1	23	/	0.7	-1.7	-21	2.8	6.2
6	O=C(COC(=O)CC12CC3CC(CC(C3)C1)C2)Nc1ncc(Cl)cc1Cl	1	-1	15	0.3	?	-8	6.6	3.6
7	CCOC(=O)CNC(=O)CSc1nnc(-c2c[nH]c3ccccc23)n1CC	6	-2	5	0.2	-3.9	-3	2.3	0.7
8	Cc1ccccc1S(=O)(=O)NNC(=O)C(=O)NNc1ccccn1	2	-3	-6	-0.8	-1.2	1	-1.3	0.2
9	Cc1onc(-c2ccccc2)c1C(=O)N1CCN(c2ncccn2)CC1	-7	30	2	0.8	-0.8	-2	3.1	-5.4
10	CN(Cc1cnccn1)C(=O)CC1C(=O)NCCN1Cc1cccc(F)c1 (stereo not given)	4	4	-13	-0.1	0.1	-3	1.3	-12
11	O=C(NC1CCCCC1)C(c1ccccc1)N(C(=O)c1csnn1)C1CC1 (stereo not given)	-7	16	5	-0.6	-2.5	1	0.0	6.1
12	Cc1cc(C)n2nc(CCc3ccccc3)nc2n1	-18	-2	-14	0.1	1.3	0	2.8	-2.1
13	CCOc1nc(-c2ccccc2Cl)ccc1C#N	-2	?	-3	0.0	-5.1	-4	1.0	3.8
14	O=C(Cn1[nH]c(=O)c2ccccc2c1=O)OCC(=O)c1ccc(Br)cc1	-4	-5	-9	0.1	-3.1	-1	-1.1	-0.8
15	CCCCNC(=O)c1cc(C)no1	1	-6	-5	0.2	-1.3	-7	0.0	2.4
16	Cc1ccccc1CN1CCN(CC2CC3C=CC2C3)CC1 (stereo not given)	3	-3	20	0.1	1.3	0	-4.0	2.0
17	COc1ccc(N2CCN(CCCNC(=O)CC3Oc4ccc(C)cc4NC3=O)CC2)cc1 (stereo not given)	1	4	-8	-0.4	?	4	1.1	5.2
18	COc1cccc(/C=C/C(=O)NNC(=O)CCN2CCN(Cc3ccccc3)CC2)c1	-3	-1	5	0.3	1.0	2	1.5	-12
19	Fc1ccc(NC(=S)Nc2ccc3nccnc3c2)cc1	8	37	-11	-0.4	9.9	/	1.1	2.5
20	NC(=O)c1nnn(-c2ccc([N+](=O)[O-])cc2)c1-c1ccccc1	4	-5	2	0.3	3.8	-4	-9.3	2.4
21	CC(C)c1ccc(CNC(=O)C(=O)Nc2nccs2)cc1	-4	?	-8	0.1	0.2	4	-2.4	-7.1
22	CCOC(=O)C1CCCN(C2CCN(Cc3nc(-c4ccccc4)no3)CC2)C1 (stereo not given)	-1	?	70*	1.0	-0.1	-1	-0.5	4.8
23	O=[N+]([O-])c1ccc2nc(NCCCO)nc(-c3ccccc3)c2c1	-6	5	11	-0.1	9.6	0	-6.9	3.0
24	COc1ccc(S(=O)(=O)N2CCCC2)cc1C(=O)O	-4	7	-8	0.8	0.5	-12	-2.6	1.1
25	COc1cc(C=O)ccc1Oc1ccc(S(=O)(=O)N2CCOCC2)cc1[N+](=O)[O-]	0	/	/	-1.6	/	1	2.2	2.8
26	COc1ccc(NC(=O)N(C)C[C@H]2Oc3c(NC(=O)C4CC4)cccc3C(=O)N([C@H](C)CO)C[C@@H]2C)cc1	0	/	/	-0.1	/	3	8.1	-0.4
27	CCOC(=O)CC1C(=O)NCCN1C(=O)c1ccc(Cl)c(Cl)c1 (stereo not given)	-1	-10	3	0.4	-0.5	/	-5.6	2.0
28	O=C(CSc1nc2c(c(=O)n1-c1ccc(Br)cc1)SCC2)Nc1nccs1	-7	11	3	0.8	-1.0	3	3.9	6.4
29	CCOC(=O)N1CCC(NC(=O)CCN2C(=O)C3C4C=CC(C4)C3C2=O)CC1 (stereo not given)	1	/	/	-0.5	/	0	3.1	-1.1
30	CC1CCCCN1C(=O)COC(=O)c1ccc(=O)n(Cc2ccccc2)n1 (stereo not given)	6	-6	4	0.6	2.3	-1	2.1	4.5

(listing goes on)
item	structure	B2AR ag	Calb FLC	T cruzi inh	A1 inh	RanGTP-Impb inh	Beta apoptosis	LANA-H2B inh	UCH37 inh
31	Cc1ccn2c(C(=O)NN=C3CCN(C)CC3)c(C)nc2c1	3	5	5	0.7	-4.1	-9	0.0	-0.5
32	CCOC(=O)c1cc(C)n(-c2ccccc2)c1C	-1	1	2	0.0	-0.3	-2	-5.5	1.5
33	Cc1ccc(NC(=O)Nn2cnnc2)c(C)c1	-2	-3	-5	0.2	0.6	1	-0.4	0.5
34	Cc1ccc(C(C)NC(=O)C2CCCC2)c(C)c1 (stereo not given)	-2	-7	-14	?	-2.6	-3	2.6	1.5
35	CCOC(=O)c1ccc(Nc2ncnc3nc[nH]c23)cc1	-7	12	-4	-6.4	-2.1	/	-1.0	-4.7
36	Cc1ccc(C(=O)N/N=C\c2cc(Br)c(Br)o2)cn1	-12	0	-9	0.2	-17	1	2.4	/
37	Cc1c(C(=O)Nc2ccc(OC(F)(F)F)cc2)sc2nc3n(c(=O)c12)CCC3	-1	-4	-16	-0.1	3.2	42	4.4	-0.9
38	CN(C)c1ccc(CNn2cnnc2SCc2ccccc2F)cc1	-2	-3	13	0.4	0.1	4	-4.5	1.9
39	Cc1ccc(NC(=O)COc2ccc(CCO)cc2-n2nc3ccccc3n2)cc1C	-8	-4	57*	-0.3	2.3	1	-6.1	-47
40	O=C(Nc1cc(C(F)(F)F)ccc1Cl)c1cccnc1	-4	10	-3	1.7	-4.1	1	3.3	/
41	COc1ccnc2c1c(=O)n(Cc1ccc(F)cc1)c(=O)n2C	-1	39	-6	-1.1	2.3	1	2.3	3.4
42	CCCCN(C(=O)c1cccc(S(=O)(=O)N2CCN(Cc3ccccc3)CC2)c1)c1ccccc1	-10	3	39	-0.2	-3.5	10	4.3	0.5
43	Cc1ccc(C)n1-c1ccc(C(=O)N2CCOCC2)cc1	5	10	5	-1.0	1.1	1	2.1	4.9
44	Cc1ccc(CNS(=O)(=O)NCc2cccs2)cc1	-3	18	-7	-0.5	-0.7	-2	-0.2	6.3
45	O=C(CCN1CCCCO1)N1CCCC(Nc2ccc(F)c(F)c2)C1 (stereo not given)	3	-3	16	0.1	-1.9	3	-0.9	1.0
46	COc1ccc2c(c1)cc(C(=O)N/N=C/c1c(O)c(C(=O)O)cc3ccccc13)n2C	5	21	-5	0.1	2.1	-1	-5.6	/
47	O=C(NCCCNC(=O)c1ccc(-c2cc(Cl)ccc2Cl)o1)c1cnccn1	5	14	0	-0.6	-0.5	10	-0.5	4.5
48	c1ccc(CC2CCN(C3=Nc4cccc5cccc3c45)CC2)cc1	9	86*	66*	0.3	1.5	0	-2.7	-14
49	O=C(Cc1ccc(-c2ccccc2)cc1)NNC(=S)NCc1ccco1	-4	-9	-9	0.5	1.3	9	-1.3	2.3
50	O=C(N/N=C/c1cc2c(cc1[N+](=O)[O-])OCO2)c1cccnc1	-3	6	5	-1.0	8.2	-4	5.1	/
51	CC(C)(C)NC(=O)NC(=O)COC(=O)CNC(=O)c1cc(Cl)cc([N+](=O)[O-])c1	-4	-2	-16	1.4	1.4	-2	-3.1	5.9
52	O=C(Nc1nc2ccc(F)cc2s1)Oc1ccccc1	-14	0	-8	-0.2	3.5	-1	2.1	1.3
53	NC(=S)Nc1ccc(Cl)cc1Cl	1	-4	0	0.0	?	-3	-1.2	5.1
54	CC(C)c1ccc(S(=O)(=O)N2CCN(C(=O)CN3C(=O)NC4(CCCC4)C3=O)CC2)cc1	2	3	-3	0.6	0.2	1	3.9	2.0
55	Cc1ccc(-c2ccc(=O)n(CC(=O)NCC3COCCO3)n2)cc1 (stereo not given)	-2	24	-15	-0.5	2.3	-1	-1.4	-4.9
56	COc1ccc(Cn2c(C)c(C)c(C#N)c2NC(=O)Nc2ccc(F)cc2)cc1	9	4	-4	0.4	-1.7	-2	-0.3	1.4

Entries above with a cyano group (three):
item	structure	B2AR ag	Calb FLC	T cruzi inh	A1 inh	RanGTP-Impb inh	Beta apoptosis	LANA-H2B inh	UCH37 inh
5	CC1(C)CC(=O)C2=C(C1)Oc1nc3ccccc3cc1C2C(C#N)C#N (stereo not given)	-1	23	/	0.7	-1.7	-21	2.8	6.2
13	CCOc1nc(-c2ccccc2Cl)ccc1C#N	-2	?	-3	0.0	-5.1	-4	1.0	3.8
56	COc1ccc(Cn2c(C)c(C)c(C#N)c2NC(=O)Nc2ccc(F)cc2)cc1	9	4	-4	0.4	-1.7	-2	-0.3	1.4

Bioassay records from PubChem.
